# Bioassay records (PubChem BioAssay)
# KCNQ2 inh: KCNQ2 potassium channel inhibitors, primary screen, cell-based, CHO-K1, FluxOR thallium flux, B-score (AID 2156); 20 min; hits give low values; only compounds with negative scores are shown here; some inactives read as strong as hits; B-score at 10 µM; hit rate 1.1% among 310,000;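 active means fluorescence ratio B-score at most minus 3 library SDs, with starting brightness B-score within 2 library SDs, cut at about -5.5 in these data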
# Target sequence (O88943 whole entry, looked up): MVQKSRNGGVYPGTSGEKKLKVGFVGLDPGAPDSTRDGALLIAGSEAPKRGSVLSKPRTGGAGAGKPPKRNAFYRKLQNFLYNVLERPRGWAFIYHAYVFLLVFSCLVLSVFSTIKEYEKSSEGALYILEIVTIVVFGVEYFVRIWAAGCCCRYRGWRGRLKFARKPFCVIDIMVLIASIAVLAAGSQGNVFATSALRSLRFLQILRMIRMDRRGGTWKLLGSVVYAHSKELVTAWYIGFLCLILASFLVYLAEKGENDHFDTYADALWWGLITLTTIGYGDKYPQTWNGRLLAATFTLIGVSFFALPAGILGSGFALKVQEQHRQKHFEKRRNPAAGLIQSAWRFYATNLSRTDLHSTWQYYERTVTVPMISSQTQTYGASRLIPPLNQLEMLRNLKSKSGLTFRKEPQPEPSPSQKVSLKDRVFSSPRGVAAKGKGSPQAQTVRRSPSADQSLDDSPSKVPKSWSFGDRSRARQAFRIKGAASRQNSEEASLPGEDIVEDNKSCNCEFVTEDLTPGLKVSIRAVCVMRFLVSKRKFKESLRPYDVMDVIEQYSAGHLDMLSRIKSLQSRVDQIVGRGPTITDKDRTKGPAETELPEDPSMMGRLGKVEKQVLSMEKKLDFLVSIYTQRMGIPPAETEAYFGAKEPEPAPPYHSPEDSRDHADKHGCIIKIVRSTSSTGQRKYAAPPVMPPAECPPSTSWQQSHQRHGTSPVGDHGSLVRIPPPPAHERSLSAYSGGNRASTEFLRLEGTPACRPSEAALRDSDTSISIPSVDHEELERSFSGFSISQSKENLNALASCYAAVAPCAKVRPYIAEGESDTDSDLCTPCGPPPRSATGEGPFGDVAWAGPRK
# KCNQ2 inh baseline: second read-out of KCNQ2 inh, no call of its own (marks repeat the call); B-score; measured here: initial fluorescence intensity artifact check;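 brightness before thallium and not channel activity; 0 = typical well and far values either way flag optical interference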
# * hit, by the source's call; i = inactive. The list is partial, so the mix of outcomes need not match the whole.
Structure	KCNQ2 inh	KCNQ2 inh baseline
COc1cccc(C(=O)C2CCCN(C/C=C/c3ccccc3OC)C2)c1 (configuration not stated)	i	-0.23
C=Cn1cc[n+](CC(=O)c2ccc(OC)cc2)c1	i	1.9
O=C(Nc1ccc(F)cc1F)c1c(C(F)(F)F)ccnc1Oc1cccc(C(F)(F)F)c1	i	-0.01
CCOc1ccc(C(CC(=O)O)NC(=O)c2sc3ccccc3c2Cl)cc1 (configuration not stated)	i	1.2
Cc1csc(SCC(=O)Nc2cc(S(=O)(=O)N3CCCC3)ccc2Cl)n1	i	0.67
CC1CCN(S(=O)(=O)N2CCC(C(=O)O)CC2)CC1	i	-0.47
Cc1nn(C)c(C(=O)N/N=C/c2cccc(Oc3ccccc3)c2)c1Br	i	-0.19
CN1CCC(OC(=O)C23CCC(C)(C(=O)O2)C3(C)C)CC1 (configuration not stated)	i	0.02
CCCN(CCC)S(=O)(=O)c1nc2nc(C)cc(C)n2n1	i	-0.64
Nc1c(C(=O)NCc2ccco2)c2nc3ccccc3nc2n1CCc1ccccc1F	i	-0.57
COc1cccc(CNc2nc3ccccc3n2C(C)C)c1O	i	0.58
O=C(/C=C/c1ccc2c(c1)OCO2)Nc1cc(S(=O)(=O)N2CCOCC2)ccc1N1CCOCC1	i	-1.3
OC1=C(O)c2nc3cc(F)ccc3nc21	i	0.13
O=C(CN1C(=O)NC2NC(=O)NC21)NC1CCCCC1 (configuration not stated)	i	-0.03
Cn1c(=O)c2c(nc(NCC3CCCO3)n2Cc2ccccc2)n(C)c1=O (configuration not stated)	i	-0.49
O=C(c1cc2cc(C(F)(F)F)ccc2s1)N1CCOCC1	i	-0.05
NC(=O)c1sc2nc(-c3cccs3)ccc2c1N	i	0.18
CCCSCCCNC(=O)c1cc2c(s1)CS(=O)(=O)C2	i	-0.25
COc1cc(N)cc(NC(=O)c2ccncc2)c1	i	1.8
O=C(Oc1cc(-c2ccccc2)no1)c1ccc(F)cc1	i	-0.66
CCOC(=O)COc1ccc(C2NC(C(=O)O)CS2)cc1 (configuration not stated)	i	0.26
Cc1c(C(=O)N(Cc2cccs2)C2CCS(=O)(=O)C2)oc2ccccc12 (configuration not stated)	i	0.3
CCn1nc(C(=O)Nc2cccc(C(F)(F)F)c2)c(Cl)c1Cl	i	2
NC(N)=NC(N)=Nc1ccc(SC(F)(F)F)cc1	i	1.4
O=C(Nc1nccs1)c1cc([N+](=O)[O-])ccc1Cl	i	-0.62
O=C(CSc1nnc(Cc2cc(=O)[nH]c(=O)[nH]2)n1-c1ccccc1)NCC1CCCO1 (configuration not stated)	i	-3.4
O=C(Nc1ccc(Cl)cc1)c1ccc2c(=O)n3c(nc2c1)CCCCC3	i	-1.8
CCN(C(=O)COC(=O)c1ccc(C)c(S(=O)(=O)N2CCOCC2)c1)C1CCS(=O)(=O)C1 (configuration not stated)	i	-1.2
O=C(c1ccc([N+](=O)[O-])s1)N1CCc2ccccc21	i	0.8
O=C1c2sc3nc4n(c(=O)c3c2CCC1Br)CCCCC4 (configuration not stated)	i	0.15
CC1(C)CC(=O)C(C(c2ccc(Br)cc2)C2C(=O)CC(C)(C)CC2=O)C(=O)C1	i	0.39
Cc1cccn2c(=O)c3cc(C(=O)NCCCn4ccnc4)n(C)c3nc12	i	0.45
COc1cc(NC(=S)NCc2ccco2)cc(OC)c1OC	i	-0.31
Cc1cc(=O)[nH]c(-n2[nH]c(C)cc2=O)n1	i	0.69
CCOc1ccccc1CN1CCC(n2nccc2NC(=O)CCc2ccccc2)CC1	i	-0.22
CC(=O)CC(C)(C)n1nnc(-c2ccccc2)n1	i	2.1
CCOc1ccccc1NC(=O)CCNS(=O)(=O)c1ccc(NC(C)=O)cc1	i	-0.56
CCOC(=O)c1c(C)[nH]c(C(=O)COC(=O)CNC(=O)c2ccccc2Cl)c1C	i	-1.6
Oc1ccccc1-c1cc(-c2ccc3c(c2)OCCO3)n[nH]1	i	-1.3
COc1ccc(CNC(=O)c2ccc(NC(=O)CC3SC(N4CCCC4)=NC3=O)cc2)cc1 (configuration not stated)	i	0.66

# Looked up by compound from the entries so far (4):
Structure	KCNQ2 inh	KCNQ2 inh baseline
COc1cc(NC(=S)NCc2ccco2)cc(OC)c1OC	i	-0.31
C=Cn1cc[n+](CC(=O)c2ccc(OC)cc2)c1	i	1.9
NC(N)=NC(N)=Nc1ccc(SC(F)(F)F)cc1	i	1.4
COc1cccc(CNc2nc3ccccc3n2C(C)C)c1O	i	0.58

# Other records follow.
Structure	KCNQ2 inh	KCNQ2 inh baseline
CCOC(=O)c1cc(-c2ccc(OC)cc2OC)nn1-c1ccc(C(=O)O)cc1	i	-0.12
COc1ccc(C(=O)C(Sc2nnc(C)c(=O)[nH]2)c2ccc(OC)cc2)cc1 (configuration not stated)	i	-0.19
O=c1c2ccccc2oc2nc(C3CCCCC3)n(Cc3ccco3)c(=O)c12	i	0.84
O=C(CCNC(=O)C1CCN(S(=O)(=O)c2ccccc2)CC1)NCc1ccc(Cl)cc1Cl	i	0.03
COc1cccc(CN2CCN(CC(=O)Nc3ccccc3Cl)CC2)c1	i	-0.5
COc1ccc(NC(=O)CSc2ncnc3c2cnn3Cc2ccccc2)cc1	i	-0.61
Cn1c(=O)[nH]c(=O)c2c1nc(NCCCn1ccnc1)n2Cc1ccccc1	i	1.4
CC1=CC2=NCC(O)CN2C=C1 (configuration not stated)	i	2.6
CCOC(=O)c1ccc(P(=O)(c2ccccc2)c2ccccc2)cc1	i	-0.04
COc1ccc(C(=O)Nc2ccc(S(=O)(=O)N3CCc4ccccc43)cc2)cc1	i	-0.38
COc1ccc(S(=O)(=O)N2CCCC2CNC(=O)C(=O)NCc2ccco2)cc1 (configuration not stated)	i	-0.19
COc1ccccc1C(=O)NC(=O)COC(=O)Cn1cnc2c1c(=O)n(C)c(=O)n2C	i	0.14
Cc1c(CN2CCCC(C(=O)c3cccc(OC(C)C)c3)C2)c(=O)n(-c2ccccc2)n1C (configuration not stated)	i	0.01
[O-][n+]1ccc(OCc2ccccc2)cc1	i	0.23
CSc1ccccc1OCc1cc(C(=O)NC2CCc3ccccc32)no1 (configuration not stated)	i	-2.3
Cc1sc(NC(=O)CCC(=O)O)c(C(N)=O)c1-c1ccccc1	i	0.63
COc1cc2ncnc(NCc3cccc(Cl)c3)c2cc1OC	i	-1.3
COc1ccc(N2CC(O)=C(c3nc(-c4ccccc4)cs3)C2=N)cc1	i	0.97
Cc1ccc(-c2nc(CN3CCCC(C(=O)N4CCOCC4)C3)c(C)o2)cc1 (configuration not stated)	i	1.3
Cc1ccc(C)n1-c1nn(S(=O)(=O)c2ccccc2)c2cccc(F)c12	i	1.3
COc1cc(C(=O)Nc2nc(-c3cccs3)cs2)cc(OC)c1OC	-7.1*	0.76*
CC(C)N1CCC(N2CCN(Cc3ccc(C#CC(C)(C)O)s3)CC2CCO)CC1 (configuration not stated)	i	1.5
CC(=O)c1ccc(-c2ccc(C(=O)NCC(c3ccc(F)cc3)N3CCOCC3)o2)cc1 (configuration not stated)	i	-0.02
COc1ccccc1N(C)S(=O)(=O)c1ccc(C(=O)OCC(=O)Nc2cc(C)on2)cc1	i	0.02
Cc1ccc(C(=O)Nc2nc3ccccc3n3nnnc23)cc1	i	2.9
CC1CN(C2CCN(S(=O)(=O)c3ccccc3)CC2)CC(C)O1 (configuration not stated)	i	-0.33
Cc1ccc2c3c(cccc13)-c1ccccc1C2=O	i	-0.06
O=C(CCn1nc(-c2ccc(Cl)cc2)ccc1=O)NCc1cccnc1	i	1.5
CCOC(=O)c1c(CN(C)C)n(-c2ccccc2)c2cc(Br)c(O)cc12	i	0.01
CCN(CC)C(=O)CSc1nc2sc3c(c2c(=O)n1CCOC)CCC3	i	1.3
N/C(Cc1ccc(Cl)c(Cl)c1)=N\OC(=O)c1ccc(Br)o1	i	0.02
COCCNC(=O)CN(Cc1ccccc1)S(=O)(=O)c1ccc2nc(C)sc2c1	i	-0.99
COC(=O)CCC(=O)NNC(=O)C1CC1(c1ccccc1)c1ccccc1 (configuration not stated)	i	1.6
CCc1cccc(OCCn2nc(C(=O)O)c3ccccc3c2=O)c1	i	-2.4
CCCCSC1=N/C(=C/c2ccsc2)C(=O)N1c1ccccc1	i	0.11
O=C(COC(=O)CCc1ccccc1)Nc1cc(S(=O)(=O)N2CCOCC2)ccc1N1CCCC1	i	1.3
COc1ccc2c(c1)C1=NN(/C(C)=C/C(C)=O)C(c3cccc(F)c3)C1CC2 (configuration not stated)	i	-0.84
Cc1cc(C)n(/C(=C/N(C)C)C(=O)c2ccccc2)n1	i	0.8
O=C(C1COc2ccccc2O1)N1CCc2ccccc21 (configuration not stated)	i	0.41
COc1cccc(C2CC(c3c(Cl)cccc3Cl)n3nc(N)nc3N2)c1 (configuration not stated)	i	-1.3
Cc1ccc(-c2cn3nc(C)c(C)nc3n2)cc1	i	0.04
CCOC(=O)Cc1csc(NC(=O)COc2cccc(C)c2)n1	i	-0.55
CC(C)CCN1C(=O)c2ccc(C(=O)OCn3nnc4ccccc4c3=O)cc2C1=O	i	-0.6
COc1ccc(NC(=O)CNc2cc(S(=O)(=O)N3CCOCC3)ccc2NCC2CCCO2)cc1 (configuration not stated)	i	2.7
CCn1c(=O)c(C(=O)NNS(=O)(=O)c2ccc(C)cc2)c(O)c2ccccc21	i	0.15
CC(=O)Nc1ccc(NC(=O)CCCCCn2nnc3ccccc3c2=O)cc1	i	-1.9
O=C(OCc1ccc(F)cc1)c1ccc2ccccc2n1	i	0.94
Cn1c(=O)c(=O)n(C)c2cc(N3CCCCC3)c(NS(=O)(=O)c3ccc(Br)cc3)cc21	i	-0.59
CCc1ccc(C(=O)CCC2CCCCC2=O)cc1 (configuration not stated)	i	-1.1
CCc1ccc(OCCn2cccn2)cc1	i	2.2
CCN(CC)CCn1c(=O)n(-c2ccc(Cl)cc2)c(=O)c2c3c(sc21)CN(C)CC3	i	0.69
CCC/C(=N/NC(=O)c1ccccc1Cl)c1ccccc1	i	-0.03
CCN(C(=O)COc1cccc2cccnc12)C1CCS(=O)(=O)C1 (configuration not stated)	i	-0.01
COc1ccccc1NC(=O)CN(Cc1ccco1)C(=O)c1cccs1	i	-1.4
CCOC(=O)N1CCN(C(=O)COc2ccc(Br)cc2)CC1	i	-1.1
O=C(C1=C[C@@H](c2ccccc2)C[C@@H](OCc2ccc(CO)cc2)O1)N1CCOCC1	i	-0.9
CCCCC12CN3CC(C)(CN(C1)C31C(=O)N(C)c3ccc(C)cc31)C2=O (configuration not stated)	i	0.65
COCC(C)n1c(SCc2ccc(C(=O)OC)cc2)nc2ccccc2c1=O (configuration not stated)	i	0.77
O=C(CCc1nnc(-c2ccccc2)o1)NCc1c(F)cccc1F	i	-0.01
COc1cccc(/C=N/n2c(C3CCCCC3)n[nH]c2=S)c1OC	i	-0.59

# Compound profiles, from the list above. Values in the order: KCNQ2 inh | KCNQ2 inh baseline
# Shown for O=C(OCc1ccc(F)cc1)c1ccc2ccccc2n1 → i | 0.94
# Shown for CCOC(=O)Cc1csc(NC(=O)COc2cccc(C)c2)n1 → i | -0.55
# Shown for CCC/C(=N/NC(=O)c1ccccc1Cl)c1ccccc1 → i | -0.03
# Shown for COc1ccccc1NC(=O)CN(Cc1ccco1)C(=O)c1cccs1 → i | -1.4
# Shown for CCCCC12CN3CC(C)(CN(C1)C31C(=O)N(C)c3ccc(C)cc31)C2=O (configuration not stated) → i | 0.65

# (cont.)
Structure	KCNQ2 inh	KCNQ2 inh baseline
CC(NC(=O)c1ccc(Cn2cc([N+](=O)[O-])cn2)cc1)c1ccccc1 (configuration not stated)	i	-0.04
COc1ccc(NS(=O)(=O)c2cc(NC(=O)c3cccs3)ccc2N2CCCC2)cc1	i	-0.6
CC(=O)Nc1ccc(S(=O)(=O)N2CCN(CCCOc3ccccc3Cl)CC2)cc1	i	-1.4
COC(=O)c1ccc(CSCC(=O)Nc2ccccc2)cc1	i	0.07
O=C(NC1CCCCC1)N1CCN(c2ccc(Cl)cc2)CC1	i	-1
Cc1nn(C(C)C)c(C)c1[C@@H]1C[C@H]2CN(Cc3cccc(Cl)c3)C(=O)[C@]23CCCN13	i	-1.8
CC(C)(C)c1nnc(NC(=O)c2cccnc2)s1	i	0.94
Cc1ccc2c(c1)N(CC(=O)N1CCCC1)C(=O)c1cccnc1O2	i	0.57
CS(=O)(=O)N(CC(=O)N1CCCC1)Cc1ccc(F)cc1	i	-0.3
CN1CCN(C(=O)CCN2C(=O)/C(=C\c3ccc(Cl)cc3)SC2=S)CC1	i	-0.13
Cc1cc(/C=C(\C#N)C(N)=O)c(C)n1-c1ccc(N2CCOCC2)c([N+](=O)[O-])c1	i	0.28
Cc1ccc(NC(=O)CCC(=O)c2cccs2)c(O)c1	i	0.82
O=C(O)/C=C/C(=O)Nc1ccc2c(c1)NC(=O)CO2	i	-0.06
CCN1CCN(Cc2cc(=O)oc3ccc(Cl)cc23)CC1	i	-0.19
COc1cc(NC(=O)c2ccc3c(c2)C(=O)N(CCC(C)C)C3=O)c(C(=O)O)cc1OC	i	0.29
Nc1nnc(CC(=O)Nc2ccccc2)s1	i	2.5
COC(=O)NCc1cc2cc(Cl)ccc2[nH]1	i	1.6
O=C(N/N=C/c1ccccc1Cl)c1n[nH]c2c1CCCC2	i	-0.08
Cc1ccc(C)c(S(=O)(=O)Nc2cc3c4c(c2)CCC(=O)N4CCC3)c1	i	0.87
